BJeLR lethal: kills HRASV12-expressing BJeLR cells | BJeLR (HRASV12) viability, CellTiter-Glo ATP luminescence, 48 h; reference of the scale not given here | inhibition, % (concentration not given with the values) | 0.17% of 300,000 active;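 active means replicate mean above 50%; inconclusive means above 50% but judged a plate artefact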;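 further: 50 nL library stock added to about 25 µL; numbers are from one replicate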
RN4220 kill: kills Staphylococcus aureus RN4220; inhibition, % (no concentration beside the values); 0.33% of 330,000 active; S. aureus RN4220 growth, OD600, 16 h; AID 1259311;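 active means z-score of -3 or lower and OD600 up to 0.18 on both plates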;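 further: plate controls were untreated cells for no effect and reference antibiotic for full effect; stock transfer was 100 nL into about 80 µL; one replicate is shown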
Autofluor counter: counter-screen for toxin protease inhibitors: compound fluorescence; compound autofluorescence counterscreen, microsphere flow cytometry; stronger effect = higher value; 3.1% of 360,000 active; fluorescence intensity (test concentration not listed);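 active means at least 3 SD above the mean of all compounds, about 16000 in these data; inconclusive means too few beads counted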;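 further: 100 nL of 1 mM stock went into each well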
Mtb hypoxia inh: inhibitors of hypoxia-regulated fluorescent reporter in Mycobacterium tuberculosis | M. tuberculosis hypoxia-regulated fluorescent reporter, fluorescence | 0.1% of 300,000 active | fluorescence inhibition, % (concentration not given with the values);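 active means 35 to 45% if threefold the growth effect, above 45% if 1.5-fold the growth effect; inactive means the rest, general growth blockers included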;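 further: wells of about 50 µL received 100 nL stock; 0% = vehicle wells and 100% = reference inhibitor wells; whole bacteria with a GFP reporter of the hypoxia response; strong numbers were not always called active; many hits fall short of the cut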
PrP 5UTR inh: suppresses PrP 5' UTR mRNA reporter expression. cell-based PrP 5' UTR mRNA reporter, plate reader. inhibition, % (concentration not given with the values). 0.35% of 340,000 active. AID 488862;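 active means every replicate at 50% or more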;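 further: 0 = median of the neutral control wells; tested in H4 reporter cells; numbers are from one replicate; inactives centre near -14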
Sa ugtP lethal: compounds lethal to S. aureus RN4220 ugtP deletion mutant. OD600 growth, 16 h; some inactives read as strong as hits. growth inhibition, % (no concentration beside the values). 0.54% of 330,000 active;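 active means z-score under -3 and OD600 up to 0.15 on both plates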;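 further: plate controls were untreated wells for no effect and antibiotic for full effect; wells of about 80 µL received 100 nL stock; the first replicate is given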
Mtb hypoxia inh growth: further read-out of Mtb hypoxia inh, marked with its call; growth inhibition, %; measured here: M. tuberculosis growth (absorbance);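 0% = vehicle and 100% = reference antibiotic; read after six days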
* = called active by the depositor; ? = inconclusive; / = no result given.

SMILES	BJeLR lethal	RN4220 kill	Autofluor counter	Mtb hypoxia inh	Mtb hypoxia inh growth	PrP 5UTR inh	Sa ugtP lethal
COc1ccc(CC(=O)Nc2c3c(nn2C(C)(C)C)CS(=O)C3)cc1 (stereo not drawn)	3	0.4	4560	7	-5	-15	8
CNS(=O)(=O)c1ccc2c3c(cccc13)C(=O)N2	-5	1.0	3108	9	6	-7	4
COc1ccc(C)cc1S(=O)(=O)N1CCc2ccccc2C1	0	/	4592	/	/	-14	/
COc1ccc(OC)c(C=NNc2nc(C)cc(=O)[nH]2)c1	/	4.0	/	4	2	/	1
Cc1ccc(-c2nc(NCCN(C)C)c3ccccc3n2)cc1	6	-2.3	/	6	0	-1	-8
COC(=O)c1ccccc1N/C=C/C(=O)c1ccc(Br)cc1	3	/	2705	/	/	-48	/
CN1C(=O)N(C)C(c2ccccc2Cl)C2=C1CC(C)(C)CC2=O (stereo not drawn)	-10	2.3	4013	16	5	-19	-2
O=C(NC1CCN(S(=O)(=O)c2ccccc2)CC1)c1ccc(F)cc1	-8	2.5	3949	3	-6	-8	-1
O=C(/C=C/c1ccccc1)NCC(=O)NN=Cc1ccco1	/	1.1	/	-2	3	/	-2
O=C(NCc1ccc2c(c1)OCO2)c1ccc(NS(=O)(=O)c2ccc3c(c2)OCCO3)cc1	3	-4.1	?	-4	-9	-2	1
Cc1noc(C(F)(F)F)c1C(=O)NNC(=O)c1cccc(C(F)(F)F)c1	8	3.0	4845	1	-4	-22	4
CCCCn1c(N)c(N(CCOC)C(=O)C2CCN(C(=O)c3ccc(Cl)cc3)CC2)c(=O)[nH]c1=O	2	2.5	4394	-7	-3	-3	1
Cc1ccc(NC(=O)CSCC(=O)Nc2ccccc2C(=O)N2CCCCC2)cc1	-5	2.3	6110	4	7	-7	10
C=CCN1C(=O)C(Cc2ccc(OCC)cc2)S/C1=N\N=C\c1cccs1 (stereo not drawn)	-9	/	2422	/	/	-33	/
O=C(NCC(c1ccco1)N1CCCCC1)c1ccc(S(=O)(=O)Nc2ccccc2Cl)cc1 (stereo not drawn)	/	4.6	3278	12	4	-15	3
CC1Nc2ncnc(N3CCOCC3)c2N(Cc2ccccc2)C1=O (stereo not drawn)	-4	6.1	3604	14	7	-6	6
CN(CC(=O)Nc1ccc(Cl)c(C(F)(F)F)c1)C(=O)Cc1n[nH]c(=O)c2ccccc12	0	-1.7	5981	4	3	-2	-6
Cc1cc(C)c(C)c(S(=O)(=O)Nc2ccccc2C(=O)O)c1C	-2	10	4340	-7	-6	-23	-4
COc1ccccc1NC(=O)N(c1c(N)n(Cc2ccccc2)c(=O)[nH]c1=O)C1CCCC1	-5	7.4	6000	1	7	-23	-10
Cn1c(=O)c2cc(S(=O)(=O)N3CCN(c4cccc(C(F)(F)F)c4)CC3)ccc2n(C)c1=O	-10	-2.0	3030	/	/	-6	5
CCOC(=O)c1ccc2c(c1)N(CC#N)C(=O)C(C)(C)O2	-5	7.3	4001	8	3	-39	10
O=C(CSc1nnc(COc2ccc(Br)cc2)o1)N1CCOCC1	-6	3.4	2175	0	8	-32	5
COc1ccc(NC(=S)N(CCN(C)C)C(C)c2ccncc2)cc1Cl (stereo not drawn)	9	1.6	5517	18	0	-11	-5
COc1ccccc1CN1CCCC(N2CCN(c3ccccc3OC)CC2)C1 (stereo not drawn)	6	-2.3	4270	-3	2	-25	1
CCOC(=O)c1ccccc1NC(=O)c1ccccc1SC	-2	1.0	8100	14	1	-1	6
(cont.)
SMILES	BJeLR lethal	RN4220 kill	Autofluor counter	Mtb hypoxia inh	Mtb hypoxia inh growth	PrP 5UTR inh	Sa ugtP lethal
O=C(/C=C/c1ccc(OCc2c(F)cccc2Cl)cc1)N1CCOCC1	7	12	4602	9	12	-3	-15
COc1ncnc(OC)c1NC(=O)c1ccc(F)cc1	1	-0.2	4681	/	/	-4	4
O=C(NCc1cccc(C(F)(F)F)c1)c1ccc(=O)[nH]c1	-3	-1.4	2763	-5	1	-17	2
Cc1ccc(F)c(NC(=O)c2c(-c3ccccc3)noc2C)c1	-1	6.6	6297	12	-13	-8	8
COc1cc(OC)cc(C(=O)Nc2ccc(S(=O)(=O)N(C)C)cc2)c1	-4	-0.2	19847*	3	1	-27	4
CC1CN(S(=O)(=O)c2ccc(C(=O)NCCCn3ccnc3)cc2)CC(C)O1 (stereo not drawn)	71*	-0.7	4706	2	0	-17	3
CCOC(=O)c1c(C)n(C)c2cc(-c3ccc(F)cc3)c(O)cc12	-3	-1.3	2157	11	2	-21	-14
FCCCOc1ccc(CN2CCN(c3ccccc3F)CC2)cc1	3	-1.5	4301	8	16	-12	9
Cc1ccc2oc(=O)n(CCCOc3ccccc3C)c2c1	-8	12	4242	1	6	-31	3
Clc1cccc(CON/C=N/c2ncnc3sccc23)c1	2	/	3393	/	/	-10	/
Cc1cc(C(F)F)n2ncc(C(=O)N3CCCCC3)c2n1	-1	4.1	2969	/	/	-13	6
Cc1csc(NC(=O)c2nc3nccc(C)n3n2)n1	0	0.6	3620	4	4	-35	5
Cc1c(NC(=O)C(C)OC(=O)c2cc(Cl)nc(Cl)c2)c(=O)n(-c2ccccc2)n1C (stereo not drawn)	-10	1.8	10724	2	6	-10	-2
Cc1cc(C)n(-c2ccc(C(=O)OCC(=O)N3CCN(c4ccccc4)CC3)cc2)n1	/	5.2	5688	1	3	-12	6
O=C(Nc1ccc(N2CCN(c3ccccc3)CC2)c(F)c1)C1CC1	0	4.4	3337	7	9	-32	12
O=C(c1ccoc1)N1CCC2(CC1)Oc1ccc(Cl)cc1C(=O)C21CC(c2ccc(Cl)cc2)=NO1 (stereo not drawn)	17	6.2	3381	4	4	7	10
COc1ccccc1N1CCN(c2ccnc3cc(Cl)ccc23)CC1	11	5.2	3640	0	3	-10	-1
Cc1ccc2oc(C(=O)Nc3cc(C)on3)c(C)c2c1	/	3.5	3666	-1	7	-70	-3
CC1CCCN(C(=O)COC(=O)c2n[nH]c3ccccc23)C1 (stereo not drawn)	2	-1.0	3532	/	/	29	1
CC1CCCN(c2nc3ccsc3c(=O)s2)C1 (stereo not drawn)	7	14	15459	3	3	-26	17
OCCC1CN(Cc2cccn2-c2ccccn2)CCN1Cc1ccccc1 (stereo not drawn)	-6	1.3	4414	11	11	-27	9
Nc1n[nH]c2c1C1(CCCC1)Cc1ccccc1-2	2	6.1	3419	14	7	6	-7
COc1ccc(OCCC(=O)NC2=NCCS2)cc1	-3	0.9	3871	-4	-6	-23	5
Oc1ccc(/C=N/Nc2ccc(C(F)(F)F)cn2)cc1	10	/	4325	/	/	-109	/
CN1CCN(c2nc(N3CCN(CCO)CC3)nc3ccccc23)CC1	-1	7.7	4950	0	5	-6	4
Next results:
SMILES	BJeLR lethal	RN4220 kill	Autofluor counter	Mtb hypoxia inh	Mtb hypoxia inh growth	PrP 5UTR inh	Sa ugtP lethal
COc1ccc(-n2c(Cn3c(=O)sc4ccccc43)nnc2SCC(=O)N2CCOCC2)cc1	/	3.1	4552	/	/	-19	8
CCCc1noc2c1/C(=N\O)CCC2	-2	/	4180	/	/	3	/
CC1CCN(c2c([N+](=O)[O-])c(=O)n(-c3ccccc3)c3ccccc23)CC1	5	2.1	3723	/	/	-8	-2
Cc1ccc(S(=O)(=O)N2CCC(C(=O)NNC(=O)C3CC3)CC2)cc1Cl	-8	4.9	4361	4	-3	-25	9
COc1cccc(CN2CCNC(=O)C2CC(=O)NCc2cc(C(C)C)no2)c1 (stereo not drawn)	3	3.4	4271	9	0	-15	5
COCCNC(=S)NNC(=O)c1cc(-c2cccnc2)nc2ccccc12	3	-3.5	6289	-1	3	-7	-4
CCOC(=O)C1CCN(C(=S)Nc2cc(OC)c(OC)cc2C(=O)OC)CC1	8	2.5	20685*	1	8	-4	2
Cc1cc(-n2nc(C)cc2C)n2nc(C)c(-c3ccccc3)c2n1	-7	4.5	8263	1	-4	-1	12
COc1ccc(NC(=O)C(c2cc3c(cc2[N+](=O)[O-])OCO3)N(C)Cc2ccccc2)cc1 (stereo not drawn)	11	-1.5	11557	3	-2	-7	8
CSc1ccc(/C=C/c2ccc3cccc(O)c3n2)cc1	7	11	4489	-8	1	-9	-1
CN(c1ccccc1)S(=O)(=O)c1nnc(NC(=O)c2ccco2)s1	3	3.8	5248	7	3	-9	8
O=C(NN=Cc1cccnc1)c1ccc2c(c1)OCO2	/	1.7	/	-1	5	/	-1
O=C(OCC(=O)N(Cc1ccccc1)Cc1ccccc1)c1ccccc1O	/	1.4	4975	11	10	-33	21
CCC(C)n1c(SCC(=O)Nc2cc(C)on2)nc2ccccc2c1=O (stereo not drawn)	14	0.2	4323	/	/	-39	-3
CC(Oc1ccccc1)C(=O)N=C1SC2CS(=O)(=O)CC2N1Cc1ccccc1 (stereo not drawn)	-7	1.2	5443	-7	-3	-13	4
COc1cccc(-c2ccc(NC(=O)C3CCCN(Cc4cnc(N(C)C)s4)C3)cc2)c1 (stereo not drawn)	-3	1.9	5534	-10	3	-33	-8
COc1ccccc1/C=C/C(=O)OCC(=O)Nc1ccc2c(c1)OCCO2	/	5.6	3801	2	8	-16	9
O=C(NCC1COCCO1)c1ccc2nc(Cc3cccc(Cl)c3)oc2c1 (stereo not drawn)	3	1.5	6176	-2	-3	-20	3
COC(=O)c1sccc1S(=O)(=O)Nc1ccc(N2CCCCC2)cc1	0	2.7	3758	14	1	-33	10
CC1CC(C)(C)NC(=S)N1CCCC(=O)Nc1ccc(Cl)cc1 (stereo not drawn)	/	3.2	4340	16	5	-17	4
Clc1ccc(-c2csc(N3CCN(c4ccccc4)CC3)n2)cc1	1	-3.1	4127	/	/	-23	2
CN(C)N=C1CCS(=O)(=O)c2sccc21	/	4.6	/	8	6	/	12
COc1ccc(-n2ncc(C(C)NS(=O)(=O)c3ccc(C)s3)c2C)cc1 (stereo not drawn)	-3	2.9	6119	-1	12	-4	0
Cc1cccc(-n2cc(C(=O)O)c(=O)cc2C)c1	10	2.7	2075	-2	8	-24	7
O=C(CCC(=O)OCC(=O)c1ccc([N+](=O)[O-])cc1)NC1CCCCC1	-2	6.1	9065	13	-8	-3	-3

Ordered by length of the SMILES (ascending): some entries from above
SMILES	BJeLR lethal	RN4220 kill	Autofluor counter	Mtb hypoxia inh	Mtb hypoxia inh growth	PrP 5UTR inh	Sa ugtP lethal
O=C(NN=Cc1cccnc1)c1ccc2c(c1)OCO2	/	1.7	/	-1	5	/	-1
CSc1ccc(/C=C/c2ccc3cccc(O)c3n2)cc1	7	11	4489	-8	1	-9	-1
Clc1ccc(-c2csc(N3CCN(c4ccccc4)CC3)n2)cc1	1	-3.1	4127	/	/	-23	2
CCC(C)n1c(SCC(=O)Nc2cc(C)on2)nc2ccccc2c1=O (stereo not drawn)	14	0.2	4323	/	/	-39	-3
COc1ccccc1/C=C/C(=O)OCC(=O)Nc1ccc2c(c1)OCCO2	/	5.6	3801	2	8	-16	9
Cc1ccc(S(=O)(=O)N2CCC(C(=O)NNC(=O)C3CC3)CC2)cc1Cl	-8	4.9	4361	4	-3	-25	9
O=C(CCC(=O)OCC(=O)c1ccc([N+](=O)[O-])cc1)NC1CCCCC1	-2	6.1	9065	13	-8	-3	-3

(list continues)
SMILES	BJeLR lethal	RN4220 kill	Autofluor counter	Mtb hypoxia inh	Mtb hypoxia inh growth	PrP 5UTR inh	Sa ugtP lethal
Cn1c(CCC(=O)OCC(=O)NCC(F)(F)F)nc(=O)c2ccccc21	-6	6.6	3331	-15	-16	-4	2
CC(NS(=O)(=O)c1ccc(OCC(=O)NCc2ccccn2)cc1)c1ccccc1 (stereo not drawn)	-18	2.7	5187	3	4	-12	0
N#C/C(=C/c1ccc(F)cc1)c1nc(CCN2C(=O)c3ccccc3C2=O)cs1	-11	2.7	16963*	0	-5	-2	6
COc1cccc(NC(=O)Nc2ccc(C(C)(C)C)cc2)c1	-1	-5.8	2195	-7	2	-58	-34
Cc1ccc(-c2nnc(C)c(N3CC(C)OC(C)C3)n2)cc1 (stereo not drawn)	1	0.0	4774	/	/	-22	-5
NCCCCC(NC(=O)C1CCNCC1)c1nnc(C(N)CO)o1 (stereo not drawn)	/	2.9	/	12	7	/	4
O=C(NC1CCCC1)C1CC(=O)N(c2ccc(F)c(Cl)c2)C1 (stereo not drawn)	2	0.8	5391	15	5	-12	4
CN(C)c1ccc(C(C(=O)NC2CCCC2)N(Cc2cccnc2)C(=O)c2snc(C(N)=O)c2N)cc1 (stereo not drawn)	-3	0.8	3688	-7	3	-16	12

Assay outcomes as filed in PubChem BioAssay.
